2A Renilla: FMDV 2A StopGo reporter, Renilla signal; HEK cells with a luciferase reporter of 2A StopGo recoding; Potency, µM (top dose mostly 57.5 µM), inactives show top-dose signal change, negative = less light; hit rate 0.32% among 120,000; active means well fitted falling curve with a large enough effect; inconclusive means small, poorly fitted or top-dose-only effect; inactive means no such curve, though single readings can be large or run the other way; also: nearly all actives have a fitted effect of over 55% in size; overnight with compound
StopGo FLuc: lowers the firefly signal of an FMDV 2A StopGo reporter; HEK cells with a luciferase reporter of 2A StopGo recoding; Potency, µM (top dose mostly 57.5 µM), without a hit: at the top dose signal change, negative = less light; hit rate 0.23% among 120,000; AID 1745856; active = well fitted falling curve with a large enough effect; inconclusive = small, poorly fitted or top-dose-only effect; inactive = no such curve, though single readings can be large or run the other way; also: nearly all actives have a fitted effect of over 60% in size; overnight with compound
* marks the source's active call; other numbers are inactive results; ? = inconclusive; [ ] = remark or other dose. % is scaled to controls: 0 for no effect and ±100 for the full control effect; potency is read from the fitted curve at half-maximal effect.

Values run as follows: 2A Renilla	StopGo FLuc
> O=C(CN1C(=O)COc2ccc(S(=O)(=O)N3CCCC3)cc21)N1CCN(c2ccccc2)CC1
→ -14%	-2%
> COc1ccc(CCNC(=O)CCn2c(=O)c3ccccc3n(CC(=O)Nc3ccccc3F)c2=O)cc1OC
→ 0%	15%
> Cc1ccc(-c2noc(-c3ccc(NCC4CCCO4)c([N+](=O)[O-])c3)n2)cc1 (stereo not drawn)
→ 6%	27%
> CC(C)CCNC(=S)Nc1ccccc1
→ 43%[activator]	51%[activator]
> Cc1ccccc1C(=O)Nc1nnc2n1CCS2
→ 87%[activator]	336%[activator]
> COc1ccc(CNC(=O)C(=O)Nc2ccc(OC)cc2OC)cc1
→ 5%	-7%
> COCC(=O)N1N=C(c2ccc3c(c2)OCO3)CC1c1ccc2nccnc2c1 (stereo not drawn)
→ 0%	30%
> CCCN(C(=O)Cn1cnc2onc(-c3ccc(F)cc3)c2c1=O)c1cccc(Cl)c1
→ -11%	8%
> CC(C)(C)OC(=O)COC(=O)c1ccc2c(c1)NC(=O)CS2
→ 27%	0%
> Cc1cc2c(cc1C)N(Cc1ccc(Cl)cc1)C1=NCCCN12
→ ?	20µM*
> COc1ccc(C(=O)Nc2ccc3oc(-c4ccncc4)nc3c2)cc1OC
→ -5%	0%
> CCOc1ccc(Nc2nc3c(S(=O)(=O)c4ccc(CC)cc4)nnn3c3ccsc23)cc1
→ 23%	24%
> CC(C)(C)c1ccc(C(=O)N/N=C/CCc2ccccc2)cc1
→ 2%	0%
> CCOCCSc1nc2c(c(=O)[nH]c(=O)n2C)n1Cc1ccccc1
→ -1%	5%
> CC(Sc1nnc(Nc2ccccc2F)s1)C(=O)N(C)c1ccccc1 (stereo not drawn)
→ 107%[activator]	150%[activator]
> CCCCn1nc(C(=O)Nc2nc(C)cs2)c2ccccc2c1=O
→ 27%	0%
> Cc1ccc2[nH]c3c(=O)n(CC(=O)NC(C)C)ncc3c2c1
→ -8%	2%
> N#CC(C#N)=C(/C=C/c1ccc(OC(F)F)cc1)C1CC1
→ ?	-15%
> COc1ccc(CNC(=O)c2ccc3c(c2)nc2n3CCCCC2)c(OC)c1
→ -2%	64%[activator]
> COc1ccc(C(=O)Oc2c(Sc3ccc(C)cc3)c(C)nn2C(C)(C)C)cc1OC
→ 10%	15%
> CCOc1ccc(/C=C/c2nc(C#N)c(N3CCN(C(=O)c4ccco4)CC3)o2)cc1
→ ?	?
> CCCN(CCC)c1nc(N)nc(Cl)n1
→ 1%	21%
> O=C(Nc1nccs1)c1ccc(Oc2ccc(F)cc2Br)nc1
→ ?	-6%
> CCCCCn1nc(C(=O)NCc2cccs2)c2ccccc2c1=O
→ 104%[activator]	-4%
> CN(C)C(=O)C(c1ccccc1)N(C)Cc1ccc2c(c1)OCO2 (stereo not drawn)
→ 2%	-11%
> COc1cccc(/C=C/c2nc3ccccc3o2)c1OC(C)C
→ 12%	68%[activator]
> CCc1ccc(S(=O)(=O)Nc2cccc(S(=O)(=O)N(CC)CC)c2)cc1
→ 144%[activator]	?
> CCn1nc(C(=O)Nc2ccccc2C(=O)OC)c2ccccc2c1=O
→ 3%	3%
> Cc1ccccc1-c1nc(CS(=O)(=O)CC(=O)NCc2ccc(OC(C)C)cc2)c(C)o1
→ -26%	?
> COc1ccc2oc(=O)c(C(=O)Nc3ccccc3Cl)cc2c1
→ -1%	134%[activator]
> O=C(NCc1ccc2c(c1)OCO2)c1ccc(-c2csc(C3CC3)n2)cc1
→ 54%[activator]	154%[activator]
> CCn1nc(C(=O)Nc2ccc3c(c2)OCCO3)c2ccccc2c1=O
→ 30%	152%[activator]
> CCCNc1c(NC(=O)Nc2cc(Cl)ccc2C)c(=O)oc2ccccc12
→ 1%	13%
> Cc1ccsc1-c1nc(-c2ccc3c(c2)CCO3)cs1
→ 46%[activator]	193%[activator]
> CCOC(=O)C(N)c1cccc(OCc2ccccc2)c1 (stereo not drawn)
→ -5%	6%
> CCn1c(N2CCN(Cc3cc(C)ccc3C)CC2)nc2c1c(=O)[nH]c(=O)n2C
→ -4%	1%
> CCC(CC)C(=O)OCc1cc(=O)n2nc(C3CCCCC3)sc2n1
→ -11%	8%
> CC(C)Oc1ccc(CNC(=O)C2CCN(C(=O)N3CC(C)Oc4ccccc43)CC2)cc1 (stereo not drawn)
→ 6%	19%
> Cc1ccccc1-n1c(=O)c2sccc2n(CC(=O)NC(C)C)c1=O
→ -7%	0%
> CCCn1nc(C(=O)NCCN2CCOCC2)c2ccccc2c1=O
→ -2%	7%

Among those listed so far, these have a cyano group:
Values run as follows: 2A Renilla	StopGo FLuc
> N#CC(C#N)=C(/C=C/c1ccc(OC(F)F)cc1)C1CC1
→ ?	-15%
> CCOc1ccc(/C=C/c2nc(C#N)c(N3CCN(C(=O)c4ccco4)CC3)o2)cc1
→ ?	?

(listing goes on)
SMILES	2A Renilla	StopGo FLuc
CCOc1ccccc1CNC(=O)C1CCCN(c2ncnc3onc(CC)c23)C1 (stereo not drawn)	-3%	7%
O=C(Nc1cc(-n2cnnn2)ccc1Cl)c1ccncc1	0%	8%
O=C(CN1C(=O)C2(SCC(=O)N2c2ccc(F)c(F)c2)c2ccccc21)NCCc1ccccc1 (stereo not drawn)	4%	-22%
COc1ccc(C(=O)NCCn2cc(SCC(=O)Nc3ccc(C)cc3)c3ccccc32)cc1	10%	?
CC(OC(=O)c1cc[n+]([O-])cc1)C(=O)Nc1cccc2ccccc12 (stereo not drawn)	8%	12%
Cc1cccc2c1OC(=O)CC2c1ccccc1 (stereo not drawn)	-3%	-5%
COc1ccccc1-n1c(SCC(N)=O)nc2c(c1=O)C1(CCCCC1)Cc1ccccc1-2	?	?
O=C(Nc1ccc(Cl)cc1)Nc1ccc(Cl)c(Cl)c1	?	37%[activator][11.5 µM]
Cc1c(Cl)cccc1NC(=O)CN1CCC2(CC1)OCCO2	-1%	32%
Cn1c(=O)n(C)c2cc(N3CCOCC3)c(NC(=O)c3ccc(Cl)cc3)cc21	-20%	3%
CCCn1c(=O)c2ccc(C(=O)NC(C)CC)cc2n2c(SCc3ccc(F)cc3)nnc12 (stereo not drawn)	4%	21%
Cc1ccc(CNC(=O)CSc2nnc(C)c3c(C)n(-c4ccccc4)nc23)cc1	-10%	-11%
O=C(CCC1CCCC1)Nc1nc(-c2ccc(F)cc2)cs1	-10%[1.06 µM]	12%
Cc1c(C(=O)N2CCC(c3nc4ccccc4o3)CC2)oc2ccc(F)cc12	?	?
COc1ccc(Oc2c(C)oc3cc(OCC(=O)NC4CCS(=O)(=O)C4)ccc3c2=O)cc1 (stereo not drawn)	-3%	0%
Cc1ccc(F)cc1NS(=O)(=O)c1ccc(N2CC(C(=O)O)CC2=O)cc1 (stereo not drawn)	-6%	-9%
Nc1nc(N)nc(-c2cc(Cl)ccc2Cl)n1	-7%	-11%[11.5 µM]
CCSc1ccc2cc(C(=O)O)[nH]c2c1	1%	17%
COc1ccc(-c2nc3cnccn3c2NC2CCCCC2)cc1	7%	110%[activator]
CN1C(CSCC(F)(F)F)Nc2cc(Cl)c(S(N)(=O)=O)cc2S1(=O)=O (stereo not drawn)	27%	4%

In the list so far, these have a COOH group.
SMILES	2A Renilla	StopGo FLuc
Cc1ccc(F)cc1NS(=O)(=O)c1ccc(N2CC(C(=O)O)CC2=O)cc1 (stereo not drawn)	-6%	-9%
CCSc1ccc2cc(C(=O)O)[nH]c2c1	1%	17%

More results:
SMILES	2A Renilla	StopGo FLuc
O=C(CCn1c(=O)c2cccn2c2ccccc21)Nc1ccc(F)cc1	23%	-20%
Cc1c(-c2ccccc2)nc2c3ccccc3ccn12	11%	4%
CC(Sc1cccc2cccnc12)C(=O)NC(=O)NC1CCCC1 (stereo not drawn)	10%	2%
CS(=O)(=O)Nc1ccc(-c2nc3ccccc3s2)cc1	15%	34%[activator]
Cc1ccc(OCCn2cc(C(=O)c3cccs3)c3ccccc32)cc1	34%[activator]	17%
Cc1nc(-c2ccccc2)sc1-c1ccc(SCC(=O)Nc2cccc(C(F)(F)F)c2)nn1	-16%	-17%
CC(NC(=O)c1cc(Cl)ccc1Cl)c1ccc2c(c1)CCCC2 (stereo not drawn)	16%	-2%
CCCCC(CC)CNC(=O)CCCn1c(=O)[nH]c2ccsc2c1=O (stereo not drawn)	25%	14%
O=c1oc2ccccc2cc1-c1cn2cc(Cc3ccc(F)cc3)sc2n1	13%	144%[activator]
Cc1nn(C)cc1CN(C)C(=O)Cn1nc(C(F)(F)F)c(Br)c1C1CC1	-12%	-4%
O=Cc1cc(O)c(Br)cc1Br	24%	41%[activator]
CCCCNC(=S)Nc1ccc(C)c(Cl)c1	18%[1.06 µM]	0%
CC(C)CC(NC(=O)COc1ccc(Oc2ccccc2)cc1)C(=O)O (stereo not drawn)	18%	18%
CC(=O)C1=C(C)OC(=O)C1(NC(=O)c1ccc(C)cc1)C(F)(F)F (stereo not drawn)	6%	33%[activator]
COc1ccc(C(C)=O)cc1COC(=O)CCc1ccc2c(c1)OCO2	-7%	-14%
COc1cccc(-c2ocnc2C(=O)Nc2cc(C)ccc2C)c1	3%	5%
Cc1ccc(Cl)cc1NC(=O)C(NS(=O)(=O)c1cccc2nsnc12)c1ccccc1 (stereo not drawn)	66%[activator]	-15%
O=c1c2sc3ccccc3c2n(Cc2cccc(Cl)c2)c(=O)n1Cc1ccccc1	-5%	-1%
CCc1c(C)nc(SCc2nc(-c3ccccc3C)no2)[nH]c1=O	-14%	-10%
CCc1cc(=O)oc2cc(C)cc(OCC(=O)O)c12	-8%	-4%
O=C1CCc2cc(C(=O)NCCc3ccc4c(c3)OCO4)ccc2N1	-15%	-3%
Cc1ccc(-c2cc3ncc4c(n3n2)-c2cc(Cl)ccc2OC4)cc1	1%	-4%
Cc1cccc(OCCSCc2ccc(C(=O)Nc3ccccc3)cc2)c1	3%	0%
Cc1ccc(S(=O)(=O)NC2CCN(S(C)(=O)=O)CC2)cc1	15%	-9%
CC1(C)CC(=O)c2cc(C(=O)Nc3ccc(Br)cc3)c(=O)n(-c3ccc(Cl)cc3)c2C1	-11%	-27%
CN(Cc1ccc(C(F)(F)F)cc1)C(=O)NCc1ccco1	8%	4%
CCOC(=O)CN1C(=O)C(O)(CC(=O)c2cccnc2)c2ccccc21 (stereo not drawn)	3%	3%
Cc1ccc(-n2cnc3cc(C(=O)NCCC4=CCCCC4)ccc32)cc1Cl	-12%	-21%
CC(C)C(NC(=O)c1ccc(F)cc1)C(=O)NN (stereo not drawn)	1%	2%
S=C(Nc1ccccc1)c1ccccc1	16%	66%[activator]
CSc1cccc(NC(=O)N(C)CCc2noc(-c3ccc(C(=O)N4CCCCC4)cc3)n2)c1	72%[activator]	39%[activator]
O=C(CCc1ncc(-c2ccc(F)cc2)o1)N1CCN(c2ccccc2Cl)CC1	-13%	53%[activator]
COc1cccc(-c2nc(CS(=O)(=O)CC(=O)N3CCN(c4ccccc4)CC3)c(C)o2)c1	?	-29%
COc1cc2cc(C(=O)NCC(=O)Nc3ccc4c(c3)OCCO4)[nH]c2c(OC)c1OC	6%	-14%
Cc1ccc(-n2c(=O)c3c4c(sc3n(CC(=O)C(C)(C)C)c2=O)CCCCC4)cc1C	-3%	-7%
COc1ccc(CNc2ccc3cc(S(=O)(=O)N4CCCCC4)ccc3n2)cc1	7%	?
CC1=C(c2ccc(C)c(C)c2)S(=O)(=O)N=C1N1CCC(C(=O)NC2CCCC2)CC1	3%	0%
Cc1cc2oc(=O)cc(CN3C(=O)c4ccccc4S3(=O)=O)c2cc1C(C)C	4%	0%
COc1ccc(NC(=O)N[C@@H](CCSC)C(=O)O)c(OC)c1	-21%	-16%
Cc1nc2sccn2c(=O)c1S(=O)(=O)Nc1cccc(Cl)c1C	204%[activator]	-4%
CCc1ccc(NC(=O)Cn2c(=O)n(CCCCC(=O)NCCc3ccc(Cl)cc3)c(=O)c3ccccc32)cc1	-9%	-11%
CCCCCCn1nc(C(=O)Nc2ccc(NC(C)=O)cc2)c2ccccc2c1=O	3%	15%
Cc1cccc(C(=O)Nc2sc3c(c2C(=O)N2CCN(C)CC2)CCC3)c1	15%	3%
CCN(CC(=O)NC(C)(C)C)C(=O)c1cccc(C#N)c1	6%	-3%
Fc1ccc(NCc2ccc(Br)cc2)c(F)c1	12%	91%[activator]
CCCCc1nn2c(=O)cc(COC(=O)c3ccc4c(c3)OCO4)nc2s1	?	-13%
CC(=O)c1ccc(NC(=O)CN2C(=O)CCc3cc(S(=O)(=O)N4CCC(C)CC4)ccc32)cc1	142%[activator]	-5%
Cc1c(C(=O)N2CCC(C)CC2)c(S(=O)(=O)NCc2ccc(Br)cc2)c(C)n1C	84%[activator]	-11%
CC(=O)C1C(=O)CC(C)(O)C(C(C)=O)C1c1ccc(Cl)cc1 (stereo not drawn)	2%	-2%
COc1ccccc1NC(=O)C(=O)NCC(c1ccc2c(c1)OCO2)N1CCN(C)CC1 (stereo not drawn)	-11%	-5%
COc1cc(Cl)ccc1Nc1ncc(C(=O)N2CCN(c3ccccc3OC)CC2)c2ccccc12	-10%	-11%
Cc1nn(C(C)C)cc1N	1%	-5%
Cc1ccc(-c2noc(CSc3nnc4ccccn34)n2)cc1F	8%	186%[activator]
CCCS(=O)(=O)c1c(S(=O)(=O)CCC)c2cc(CC)ccn2c1C(=O)c1ccc(OC)cc1	5%	-18%
CC(=O)N1CCc2nc3sc(C(=O)Nc4ccc(F)cc4)c(N)c3c(C(F)(F)F)c2C1	-11%	42%[activator]

Source: PubChem (National Center for Advancing Translational Sciences (NCATS))
